# Arbovirus anti – antivirals against arbovirus infection. inhibition, % at 10 µM. arbovirus infection cell-based antiviral screen. AID 1251. hit rate 0.37% among 200,000;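 active = inhibition from about 30%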;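 note: bluetongue infection of BSR cells; cell survival read as ATP light after 72 h; 0% = infected wells without compound and 100% = uninfected wells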
# YopH PTP inh – YopH (Yersinia) phosphatase inhibition; fluorescence Ex485/Em525; inhibition, %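 (about 10 µM by stock and volumes)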; hit rate 0.16% among 140,000; AID 898;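 active = inhibition of 50% or more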;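 note: controls were vehicle for no effect and minimum signal wells for full effect; inactives centre near -20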
# Mtb H37Rv – M. tuberculosis H37Rv growth inhibitors, H37Rv strain (AID 1626) | M. tuberculosis H37Rv growth inhibition; higher % means a stronger effect | inhibition, % at 10 µM; hits with a dose series show IC50 in µM | hit rate 0.95% among 220,000;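 active = confirmed in a dose series; inconclusive = inhibition above 80% but not taken into the dose series; inactive = below 80% or under 30% at every dose of the series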;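 note: bacteria incubated seven days before Alamar blue readout; 0% = bacteria only wells and 100% = bacteria with antibiotic wells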
# Mtb betalactam – beta-lactam sensitization of Mtb H37Rv; M. tuberculosis H37Rv growth with meropenem, percent inhibition; hits of this screen are not shown here; inhibition, % at 25 µM; hit rate 0.27% among 330,000;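 active = about 74% or more and at least 40 points above the plate without the antibiotic, then above 30% in a dose series; inconclusive = first-round hits that could not be retested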;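 note: growth measured after seven days incubation then overnight dye step; 0% = bacteria only wells and 100% = bacteria with antibiotic; twin plates without the antibiotic show which effects depend on it; some results filed as inactive read as strong as hits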
# RecA splice inh – blocks M. tuberculosis RecA intein splicing. AID 2221. cell-free RecA intein splicing, fluorescence. hit rate 0.75% among 290,000. P9WHJ3. inhibition, %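 (about 9 µM by stock and volumes)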; in the data active = inhibition above about 30%; inconclusive = no clear call, values can overlap the other calls;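 note: 0% = vehicle wells and 100% = reference inhibitor control wells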
# Target sequence (P9WHJ3 whole entry, looked up, canonical isoform): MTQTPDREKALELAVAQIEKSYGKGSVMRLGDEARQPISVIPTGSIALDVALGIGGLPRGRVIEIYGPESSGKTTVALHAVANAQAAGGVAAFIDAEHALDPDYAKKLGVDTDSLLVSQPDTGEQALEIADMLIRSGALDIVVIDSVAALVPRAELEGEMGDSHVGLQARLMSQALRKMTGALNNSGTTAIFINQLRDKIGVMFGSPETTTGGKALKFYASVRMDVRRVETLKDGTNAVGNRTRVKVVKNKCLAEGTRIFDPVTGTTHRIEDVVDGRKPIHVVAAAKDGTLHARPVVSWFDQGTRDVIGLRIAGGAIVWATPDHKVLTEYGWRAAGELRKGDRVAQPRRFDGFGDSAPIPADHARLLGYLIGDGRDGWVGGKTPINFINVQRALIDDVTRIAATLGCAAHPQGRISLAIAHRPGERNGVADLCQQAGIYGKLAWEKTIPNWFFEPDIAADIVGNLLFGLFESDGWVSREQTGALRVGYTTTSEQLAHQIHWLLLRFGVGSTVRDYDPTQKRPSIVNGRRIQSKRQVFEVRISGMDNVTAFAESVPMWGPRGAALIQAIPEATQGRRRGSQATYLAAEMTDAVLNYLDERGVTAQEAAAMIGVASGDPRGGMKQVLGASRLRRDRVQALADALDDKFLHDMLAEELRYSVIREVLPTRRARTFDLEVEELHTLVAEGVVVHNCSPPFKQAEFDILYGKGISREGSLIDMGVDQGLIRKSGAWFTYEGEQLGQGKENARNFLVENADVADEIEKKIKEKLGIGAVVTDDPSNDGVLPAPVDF
# Arbovirus anti repeat – also measured in Arbovirus anti; calls as there; inhibition, %; measured here: 10K subset replicate screen; many hits read low in the repeat;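 first of two repeat runs on a subset; 0% = infected and 100% = uninfected wells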
# * marks the source's active call; other numbers are inactive results; ? = inconclusive; · = no result given. Only part of the results is shown, so the mix of outcomes need not match the whole.
# The opening 2 compounds, to show the layout:
SMILES,Arbovirus anti,YopH PTP inh,Mtb H37Rv,Mtb betalactam,RecA splice inh,others
CCOC(=O)C1(C)NC(c2ccc(OC)c(OC)c2)C2C(=O)N(CC)C(=O)C21 (stereo not given),5,14,0%,7,-3.1,
Cc1cc2nc3n(c2cc1C)CC1CC(C(=O)NCc2ccccc2)N(C)C31 (stereo not given),·,·,·,-2,0.3,

# Results, from the first entry:
SMILES,Arbovirus anti,YopH PTP inh,Mtb H37Rv,Mtb betalactam,RecA splice inh,others
CCOC(=O)C1(C)NC(c2ccc(OC)c(OC)c2)C2C(=O)N(CC)C(=O)C21 (stereo not given),5,14,0%,7,-3.1,
Cc1cc2nc3n(c2cc1C)CC1CC(C(=O)NCc2ccccc2)N(C)C31 (stereo not given),·,·,·,-2,0.3,
CCS(=O)(=O)CCSC1OC(COC(C)=O)C(OC(C)=O)C(OC(C)=O)C1OC(C)=O (stereo not given),4,·,-1%,-9,-1.0,
O=C(O)C1CCCCC1C(=O)Nc1ccc(S(=O)(=O)N2CCCC2)cc1 (stereo not given),·,·,·,-4,-2.6,
COc1ccc(C2=NN(C(=O)c3ccco3)C(c3ccco3)C2)cc1OC (stereo not given),·,·,·,-1,12,
CC(NC(=O)CCCn1cc([N+](=O)[O-])cn1)c1ccccc1 (stereo not given),-4,·,-2%,-13,-2.6,
COc1ccc(CNc2ccc(-c3ccccc3OC)nn2)cc1,-4,22,-2%,-2,1.8,
CCc1cc(=O)oc2c(C)c(OC(C)C(=O)NCCCN3CCOCC3)ccc12 (stereo not given),·,·,·,-2,1.3,
CCOc1cc(/C=C/c2nc3ccccc3s2)ccc1OCC(=O)N1CCOCC1,-12,-34,30%,93,1.0,
Cn1c(=O)c2c(nc(CN3CCOCC3)n2CCc2ccccc2)n(C)c1=O,12,-1,-9%,?,-0.4,Arbovirus anti repeat=-4
O=S(=O)(c1cccc(Cn2nnc(-c3ccc(F)cc3)n2)c1)N1CCOCC1,·,·,·,-6,3.0,
Cc1ccc(/C=C/C(=O)NCc2ccc(S(N)(=O)=O)cc2)o1,13,·,-4%,·,-1.1,
COc1ccc(N/C(C)=C/C(=S)Nc2ccccc2)cc1,-9,-19,29%,88,7.0,
COC(=O)CSc1nc(-c2ccccc2)c2c(c1C#N)CCCC2,3,5,5.2µM*,91,2.3,
CC(C)c1ccc(NC(=O)Cn2cccc2C2=NC(c3ccccc3)CO2)cc1 (stereo not given),-4,-7,-3%,0,0.6,
CC1=C(C(=O)Nc2ccccc2)C(c2ccco2)n2ncnc2N1 (stereo not given),2,7,-8%,8,1.4,
CCCn1c(SCC(=O)Nc2ccc(OC)cc2[N+](=O)[O-])n[nH]c1=O,9,·,1%,-4,·,
CCN(C(=O)COC(=O)c1ccc(OC)c(S(=O)(=O)N(C)Cc2ccccc2)c1)C1CCS(=O)(=O)C1 (stereo not given),·,·,·,-10,-0.8,
Cc1ccc2nc(N3CC(=O)Nc4ccccc43)nc(-c3ccccc3)c2c1,-7,-13,13%,-3,·,
CCCCCN(C(=O)COC(=O)c1ccc(Br)o1)c1c(N)n(CCCC)c(=O)[nH]c1=O,3,1,·,-13,-0.1,

# Part of the list above in order of count of non-hydrogen atoms, rising.
SMILES,Arbovirus anti,YopH PTP inh,Mtb H37Rv,Mtb betalactam,RecA splice inh,others
COc1ccc(CNc2ccc(-c3ccccc3OC)nn2)cc1,-4,22,-2%,-2,1.8,
CCOc1cc(/C=C/c2nc3ccccc3s2)ccc1OCC(=O)N1CCOCC1,-12,-34,30%,93,1.0,
CCN(C(=O)COC(=O)c1ccc(OC)c(S(=O)(=O)N(C)Cc2ccccc2)c1)C1CCS(=O)(=O)C1 (stereo not given),·,·,·,-10,-0.8,

# Following part:
SMILES,Arbovirus anti,YopH PTP inh,Mtb H37Rv,Mtb betalactam,RecA splice inh,others
Cc1cc(C)c(C(=O)N2CCCC(N3CCN(c4ccc(F)cc4)CC3)C2)o1 (stereo not given),·,·,·,?,3.1,
O=C(c1cccc(Cl)c1Cl)N1CCN(c2ccccn2)CC1,-7,27,-4%,-6,-0.2,
CC(=O)C1=C(O)C(=O)N(CC(=O)O)C1c1ccccc1Cl (stereo not given),0,-40,5%,-2,3.3,Arbovirus anti repeat=3
COCCn1nnnc1CN1CCC(NC(=O)c2ccc(Br)cc2)CC1,-2,17,-10%,-12,-2.5,
O=C(Nc1nonc1-c1ccc(Cl)cc1)c1ccccc1,7,·,-3%,5,2.7,
CC(C)(C)NC(=O)CN(C(=O)c1csnn1)c1ccccc1-c1ccccc1,-1,·,-6%,-6,0.7,
CCOc1ccc(/C=N/n2c(SC)nnc(C(C)(C)C)c2=O)cc1,2,3,4%,-6,2.5,
COC(=O)c1ccc(COc2ccccc2[N+](=O)[O-])o1,-6,-27,4%,-1,-3.4,
COc1ccc2[nH]c(C)c(C(=O)CN3CC(C)OC(C)C3)c2c1 (stereo not given),5,-17,·,1,1.4,
CCN(CC)c1ncnc2c1cnn2Cc1ccc(C)cc1,·,·,·,-3,0.0,
O=C1CC(c2cccc(Br)c2)c2cc3c(cc2N1)CCC3 (stereo not given),-40,-10,·,10,2.8,
Cc1nc(N2CCC(C)CC2)c(C#N)c(C)c1[N+](=O)[O-],-2,·,1%,-3,6.4,
COc1ccccc1-c1cc(C(=O)N/N=C\c2cnn(C)c2C)c2ccccc2n1,-11,-27,-2%,-2,4.0,
CCN(C(=O)CSc1nc2c(cnn2-c2ccccc2)c(=O)[nH]1)C1CCS(=O)(=O)C1 (stereo not given),2,-23,-4%,4,-2.7,
O=C(CNc1cc(S(=O)(=O)N2CCOCC2)ccc1N1CCCC1)N1CCc2ccccc21,-2,·,-1%,-4,1.9,
O=C(O)c1cc(N/N=C/c2cccc3ccccc23)ccc1Cl,·,·,·,1,2.0,
O=Cc1c(Cl)nc2ccccn12,-1,·,-2%,-3,-5.0,
CN(C)CCCNS(=O)(=O)c1ccc(-n2nnc3ccccc32)c([N+](=O)[O-])c1,·,·,·,7,-3.8,
CCCN1CCN(CCCNC(=S)Nc2ccc(OC)cc2)CC1,5,-33,-2%,-3,0.6,
CC(C)Oc1ccc(C(=O)Nc2c3c(nn2-c2ccccc2)CS(=O)(=O)C3)cc1,·,·,·,-9,-1.2,
CCCc1cc(=O)[nH]c(SCC(=O)N2CCN(S(=O)(=O)c3ccccc3)CC2)n1,4,-32,1%,6,-3.1,
CCCCOC(C)n1cc(F)c(=O)[nH]c1=O (stereo not given),4,-25,3%,2,-1.5,
CC(=O)Nc1c(O)c2cccc3c2n(c1=O)CCC3,·,·,·,-8,3.2,
Cn1nc(C(F)(F)F)c(CNC(=O)C(C)(C)CCl)c1N1CCOCC1,1,·,-9%,0,-2.4,
COc1ccc(N2CCN(C(CNC(=O)C(=O)NCC(OC)OC)c3ccco3)CC2)cc1 (stereo not given),·,·,·,5,2.4,
COc1ccc(C(=O)NCC(=O)N/N=C/c2cccnc2)cc1OC,·,·,·,10,-0.4,
CCCCCCN=C1CC(C)(C)CC(=O)/C1=C(/O)CCC,·,·,26%,100,3.8,
Cc1[nH]n(CCC#N)c(=O)c1CC(=O)N1CCN(c2ccccc2)CC1,-2,-10,-14%,-4,-1.2,
Cc1ccc(NCc2nnc(SCC(=O)Nc3nnc(C)s3)n2C)cc1,25,·,2%,-2,-1.1,
CC(C)Nc1ccc(Nc2ccccc2)cc1,·,·,·,35,36*,
COc1ccc(N2CCN(S(=O)(=O)CCNC(=O)c3cccs3)CC2)cc1,·,·,·,-2,-0.8,
CCOC(=O)/C=c1\s/c(=C\c2ccc(C(=O)OC)cc2)c(=O)n1CC(=O)Nc1ccccc1,12,·,0%,-4,-0.2,
Cc1ccc(-c2csc(NC(=O)CSc3nc4ccccc4c(=O)n3CCCN(C)C)n2)cc1,-21,·,7.7µM*,100,17,
CCn1c2c(c(=N)c3c1CCC3)CCC2,6,-21,-2%,-2,0.3,
Cc1ccc(CN2CCC(CNC(=O)C3CCCN(c4ncnc5c4nc4n5CCCCC4)C3)CC2)cc1 (stereo not given),·,·,·,-9,-0.9,
O=C(NC(Nc1ncccn1)C(=O)c1ccccc1)c1ccccc1 (stereo not given),-6,-27,-4%,-11,-0.2,Arbovirus anti repeat=-8
Cc1ccc(C)c(OCCCC(C)(C)C(=O)O)c1,6,-53,-13%,10,1.8,
COc1ccc(/C=C(/NC(=O)c2ccc([N+](=O)[O-])cc2)C(=O)NC(C)(C)C)cc1,-2,·,7%,64,0.8,
CCN(CC(=O)NCCc1ccccc1)S(=O)(=O)c1ccccc1,1,·,-4%,1,0.7,
Cn1c(C(=O)N2CCc3ccccc3C2)cc2oc3ccccc3c21,2,-23,-10%,29,18,
Cc1csc(NC(=O)CSc2nncs2)n1,·,·,·,-8,-2.6,
Cc1ccc(NC(=O)COC(=O)c2ccc3c(c2)C(=O)N(CCc2ccccc2)C3=O)c(C)c1,9,-24,0%,-4,-0.7,
CCOC(=O)c1nn(-c2ccccc2)c(=O)c(C#N)c1C,0,-20,3%,-10,25,
COc1ccc(C(=O)NC2=NCCS2)c(OC)c1,·,·,·,3,-1.3,
Cc1ccc(NC(=O)CN(C)C(=O)c2cccnc2Nc2cccc(C(F)(F)F)c2)cc1,·,·,·,100,7.0,
O=C(NCCc1csc(-c2cccnc2)n1)c1cccs1,5,-28,·,10,-0.9,Arbovirus anti repeat=4
C#CCOCCOCCOCCNc1nc(N2CCOCC2)nc(N2CCN(C(=O)[C@H]([C@@H](C)CC)n3cc([C@@H](N)CO)nn3)CC2)n1,3,·,-4%,-4,-1.0,
C/C(CC(=O)NCc1ccc(Cl)cc1)=N\NC(=O)COc1ccc(C)cc1Br,·,·,·,3,2.4,
CCC(=O)Nc1ccc(C(=O)CSc2nnc(-c3cccnc3)o2)cc1,6,-41,12%,8,-0.3,
COC(OC)C12c3ccccc3C(c3ccccc31)C1C(=O)N(c3cccnc3)C(=O)C12 (stereo not given),3,·,-3%,-1,-1.7,
COc1cccc(C(=O)O/N=C(\N)c2ccncc2)c1OC,-4,-56,6%,-1,5.0,
COc1ccc(C(=O)NC(=S)Nc2cccc3ncccc23)cc1[N+](=O)[O-],·,·,·,-1,0.9,
COc1cccc(NC(=O)CN(C)C(=O)c2cccc(S(=O)(=O)N3CCN(c4ccccc4)CC3)c2)c1,·,·,·,5,3.0,
CCc1noc(C)c1C(=O)Nc1nc(-c2ccc(Cl)cc2Cl)c(C)s1,-8,-9,-8%,61,-0.5,
CCc1n[nH]c(=S)n1/N=C/c1ccc2c(c1)OCO2,0,-137,-11%,-5,-0.7,
C/C(=C/C(=O)O)C(=O)Nc1cccc(C(F)(F)F)c1,-1,·,4%,3,-0.8,
Fc1ccc(COc2ccc(-c3nnco3)cc2)cc1,·,·,-4%,3,2.2,
O=C(Nc1ccc(Oc2ccccc2)nc1)C1CCCCN1Cc1ccco1 (stereo not given),·,·,·,-17,1.7,
Cc1ccc(S(=O)(=O)N[C@@H](Cc2ccccc2)C(=O)CCl)cc1,-4,-32,-15%,0,93*,
COc1ccc(Cn2nnc(C(=O)Nc3ccc(F)cc3)c2N)cc1,-2,0,7%,-10,-1.1,

# Next compounds follow.
SMILES,Arbovirus anti,YopH PTP inh,Mtb H37Rv,Mtb betalactam,RecA splice inh,others
CCOc1ccc(Br)cc1/C(C)=N\NC1=NCCN1,-26,14,2%,-6,4.2,
O=C(COC(=O)c1cccc(N2C(=O)c3ccccc3C2=O)c1)Nc1ccccc1,4,-26,-7%,4,2.3,
CC(NC(=O)COc1ccccc1)C(c1cccs1)N1CCCC1 (stereo not given),12,·,2%,5,1.4,
COc1ccc(-c2[nH]ncc2CN(C)Cc2ccccn2)c(OC)c1,-1,·,0%,12,0.4,
CCOc1ccc(NC(=O)NCCN2C(C)CCCC2C)cc1 (stereo not given),-3,-2,-3%,-8,·,
CCC(=O)N(CCC1(C(C)C)CCOC(C)(C)C1)C(C)c1cccs1 (stereo not given),·,·,10%,-6,·,
C=CCOCC(O)Cn1c(N2CCCC2)nc2c1c(=O)n(C)c(=O)n2C (stereo not given),·,·,·,2,-2.9,
Cc1ccccc1NC1=NC2(CCCC2)N=C(N)N1,-1,·,2%,-1,-1.6,
O=Cc1cc2ccccc2nc1SCc1ccc(Cl)cc1,-13,-15,-4%,14,1.9,
CCOC(=O)c1ccc(N2C(=O)CC(N3CCC(C(=O)OCC)CC3)C2=O)cc1 (stereo not given),5,-42,-3%,-13,0.3,

# 3 compounds picked at random from those above, as already listed:
SMILES,Arbovirus anti,YopH PTP inh,Mtb H37Rv,Mtb betalactam,RecA splice inh,others
Cc1ccccc1NC1=NC2(CCCC2)N=C(N)N1,-1,·,2%,-1,-1.6,
O=Cc1cc2ccccc2nc1SCc1ccc(Cl)cc1,-13,-15,-4%,14,1.9,
CC(NC(=O)COc1ccccc1)C(c1cccs1)N1CCCC1 (stereo not given),12,·,2%,5,1.4,

# Bioassay records as filed in PubChem BioAssay.
